# CSC inhib: blocks cancer stem cells; inhibition, % at 7.5 µM; cancer stem cell-like cells viability, luminescence; actives 1.1% (n = 300,000);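 active means mean at 75% or more and at least half the replicates too; inconclusive means mean and replicates disagree; tested in HMLE shEcad cells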;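 further: 0% = median of negative and 100% = median of positive control wells; the first replicate is given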
# HIV Env fusion: blocks HIV Env-driven cell-cell fusion; inhibition, % at 12.3 µM; actives 1.1% (n = 360,000); HeLa-JRFL Env/CEM21 cell fusion, luciferase; AID 651610;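 active means mean replicate inhibition score of at least 50 and every replicate individually at or above 50; inconclusive means only one of the two criteria met; inactive means mean below 50 and not all replicates reaching 50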;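 further: 0% = plate neutral controls and 100% = maraviroc near 300 nM; one replicate is shown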
# MT1-MMP act inh: MT1-MMP (human) activation inhibition. HT1080 RFP-PRO-GFP cells, GFP/RFP ratio fluorescence, overnight; percent of plate control window, DMSO zero. P50281. GFP/RFP ratio change, % at 20 µM. AID 651647. actives 0.061% (n = 360,000);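 active means GFP/RFP ratio change of at least 30% with cell ATP level not reduced by more than half and red fluorescence within 50% of control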; further: strong numbers were not always called active
#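 Material: RFP-PRO-GFP reporter HT1080 cells. Dosing: single-point 20 µM compound, 1% DMSO. Controls: DMSO and RFP-L50D-GFP cell wells. Timing: cells overnight before dosing, compound overnight, 37 °C, 5% CO2. Measure: GFP/RFP fluorescence ratio.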
# eIF4H inh: inhibitors of RNA binding by human eIF4H; Q15056; eIF4H fluorescence polarization binding assay; inhibition, % at 35 µM; actives 0.94% (n = 290,000);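 active means 50% or more with normal probe brightness, or confirmed in later tests; inconclusive means above 50% with abnormal brightness, or retests that disagree; inactive means below 50% or failed in later tests; about a fifth of its hits are not listed in these tables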;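 further: calls also rest on retests at 20 µM and on dose response follow-up; 0% = protein and probe with vehicle and 100% = probe without protein; strong numbers were not always called active; many hits fall short of the cut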
# UUG fidelity: modulators of start codon recognition fidelity in yeast; S. cerevisiae UUG-firefly luciferase reporter, luminescence/redox ratio; activity score, % at 18.7 µM; actives 0.13% (n = 350,000);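 active means replicate mean at a twofold rise or more, about +100% in these data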;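 further: firefly luciferase made from a UUG start codon reports start codon fidelity; reporter light over untreated wells divided by growth signal over untreated wells; some hits fall short of that in this replicate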
# PABP polyA inh: PABP-poly(A) binding inhibition | inhibition, % at 35 µM | P11940 | actives 1% (n = 290,000) | PABP-poly(A) RNA binding, fluorescence polarization;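 active means 50% or more with normal probe brightness, or confirmed in later tests; inconclusive means above 50% with abnormal brightness, or retests that disagree; inactive means below 50% or failed in later tests; about a fifth of its hits are not listed in these tables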;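 further: calls also rest on retests at 20 µM and on dose response follow-up; controls were probe without protein and protein plus probe with vehicle; some compounds called inactive have numbers as strong as hits; many hits fall short of the cut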
# Rce1 inhib: yeast Ras-converting enzyme inhibition; Q03530; yeast membranes, quenched prenylated peptide cleavage fluorescence; calls only; actives 0.27% (n = 290,000);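 active means fall in fluorescence gain of 50% or more versus controls, with final raw signal at or below 3038400; inconclusive means same 50% fall but final raw signal above 3038400; inactive means fall in fluorescence gain under 50%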;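 further: plate controls were neutral control wells for no effect and wells lacking membranes for full effect; tested at 10 µM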
# Target sequence (Q03530 whole entry, looked up): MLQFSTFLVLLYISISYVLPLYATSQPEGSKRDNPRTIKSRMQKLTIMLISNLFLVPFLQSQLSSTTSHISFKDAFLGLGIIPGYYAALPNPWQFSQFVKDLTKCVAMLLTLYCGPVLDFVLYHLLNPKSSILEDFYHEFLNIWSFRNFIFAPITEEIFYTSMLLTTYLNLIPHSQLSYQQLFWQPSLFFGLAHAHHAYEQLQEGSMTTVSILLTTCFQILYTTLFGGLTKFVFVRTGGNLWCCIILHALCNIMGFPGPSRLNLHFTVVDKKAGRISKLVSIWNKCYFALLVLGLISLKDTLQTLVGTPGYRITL
# MT1-MMP act inh RFP: second read-out of MT1-MMP act inh, no call of its own (marks repeat the call); RFP signal change, %; measured here: RFP expression control read;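 0 = vehicle wells; hits needed this value within 50% of zero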
# Starred values were filed as active, the others as inactive; i = inactive; ? = inconclusive; . = no result given.
SMILES,CSC inhib,HIV Env fusion,MT1-MMP act inh,MT1-MMP act inh RFP,eIF4H inh,UUG fidelity,PABP polyA inh,Rce1 inhib
O=C(Nc1ccc2c(c1)OCO2)c1c(F)cccc1F,-9,.,-5,-4,5,-7,-2,i
CCCCCCn1c(=O)[nH]c2nc3cc(N)ccc3nc2c1=O,82*,-22,.,.,?,.,22,i
CCN(CC(=O)NCCCN1CCOCC1)S(=O)(=O)c1ccc(F)cc1,.,5,-2,-1,-7,-13,-2,i
O=[N+]([O-])c1ccc(/C([O-])=C(/C(=S)Nc2ccccc2F)[n+]2ccccc2)cc1,-18,-1,0,3,-8,-16,-4,i
O=C(CCCN1C(=O)CCC1=O)Nc1ccccc1F,10,-24,-1,5,8,-18,-4,.
COc1ccc(/C=C(/NC(=O)c2ccccc2)C(=O)NCC2CCCO2)cc1 (stereo unspecified),.,-13,0,4,-7,-11,2,i
CCOC(=O)c1c(NC(=O)CC2SC(N)=NC2=O)sc(C)c1C (stereo unspecified),-13,-2,7,0,2,.,13,i
COc1ccc(-c2nnc3sc(COc4ccc(C)cc4)nn23)cc1,19,.,-1,0,-8,3,-1,i
CCc1cc(C(=O)Nc2ccccc2)cs1,2,-132,2,1,-15,-21,7,i
CSc1ccccc1C(=O)NCCCn1ccnc1,-9,-1,2,2,-12,-7,-12,i
O=C(O)CCCCCN1C(=O)C(=O)/C(=C(/O)c2ccccc2)C1c1ccccc1 (stereo unspecified),.,.,3,5,3,-14,2,i
CCOc1cc(N2CCOCC2)c(OCC)cc1NC(=O)c1oc2ccccc2c1C,-5,25,6,3,6,-24,-10,i
Cc1ccc(N2CC(C(=O)Nc3cc(C)ccc3F)CC2=O)cc1 (stereo unspecified),-12,-35,-5,2,0,1,-7,i
CCOC(=O)C1CCN(C(c2cc3c(C)ccc(C)c3[nH]c2=O)c2nnnn2C2CCCCC2)CC1 (stereo unspecified),-5,7,-26,-8,4,.,-4,i
CCC(NC(=O)CCc1c(C)c2cc3c4c(oc3cc2oc1=O)CCCC4)C(=O)O (stereo unspecified),-8,10,3,-1,-5,-2,2,i
CC1=C(C(=O)Nc2ccccc2)C(c2ccncc2)C(C#N)=C(SCC(=O)NC(C)C)N1 (stereo unspecified),-16,-105,3,2,1,.,-4,i
O=C(O)C1C2C=CC(C3CC23)C1C(=O)NCCc1ccccc1 (stereo unspecified),-1,.,2,4,-2,-6,-1,i
CCCOc1cc(N(CC)CC)ccc1/C=C(/C#N)c1nc2ccc(C)cc2[nH]1,58,.,-339,-4,?,-16,?,i
C/C=C(\C)CN1CCC(Oc2cc(C(=O)NC3CC3)ccc2OC)CC1,0,-2,1,6,-11,-4,-4,i
O=C(N/N=C/c1ccc(Cl)s1)c1ccccc1[N+](=O)[O-],-5,20,1,1,0,-14,-5,i
COc1cc(C(=O)OCC(=O)NC2CC2)cc(OC)c1OC,-6,.,3,5,.,-17,.,.
COC(=O)c1ccc(OCC(O)CN2CCC(C)CC2)cc1 (stereo unspecified),-3,-3,.,.,-10,-18,9,i
COc1ccc(CCNC(=O)C2CCN(S(=O)(=O)c3cnc[nH]3)CC2)cc1OC,-2,.,-19,-2,-1,-12,-9,i
Cc1cc(NC(=O)c2ccccc2)sc1C,50,-208,-11,3,-6,-17,0,i
CC(C)C1Cc2c(sc(NC(=S)NC(=O)c3ccccc3)c2C#N)CO1 (stereo unspecified),-3,-22,2,-1,-8,.,15,.
# Other structures
SMILES,CSC inhib,HIV Env fusion,MT1-MMP act inh,MT1-MMP act inh RFP,eIF4H inh,UUG fidelity,PABP polyA inh,Rce1 inhib
CC(C)(C)OC(=O)N1CCC[C@H]1c1nnc(SCc2c(F)cccc2Cl)o1,-13,.,-1,-3,2,-3,1,i
CCc1ccc(/C(C)=N/NC(=O)CNC(=O)/C=C/c2ccco2)cc1,-2,.,.,.,.,-7,.,i
CCc1ccc(OCC(=O)NNC(=O)C2CCN(c3ncnc4sc(C)c(C)c34)CC2)cc1,-4,.,-4,-3,.,-12,.,i
CCC(Oc1cc(Cl)ccc1Cl)C(=O)NN1C(=O)C2C3CCC(C3=C(C)C)C2C1=O (stereo unspecified),9,?,-12,-8,-8,1,-4,i
CCCOc1ccc(S(=O)(=O)NCc2ccc(OC)cc2)cc1,1,.,4,-5,-6,4,-10,i
CC(=O)Oc1ccccc1C(=O)O,-10,12,3,2,.,-11,.,i
CCN(CC)c1ccc(-n2c(O)c(C=C3N=c4ccccc4=N3)sc2=S)cc1,-6,9,0,0,-8,-13,29,i
CCOC(=O)C1CCN(c2ccccc2CN2CCN(c3ccccc3OCC)CC2)CC1,13,.,-9,-6,5,9,7,i
Cc1ccsc1C(=O)N1CCCC(N(C)Cc2ccccc2)C1 (stereo unspecified),-3,-12,-1,-3,-12,-15,-10,i
CCCCC/C(=N\NC(=O)Nc1ccccc1)c1ccccc1,-10,-1,-4,-6,1,.,-4,i
COc1cccc(-c2c(C(=O)N/N=C/C3CC=CCC3)nnn2-c2nonc2N)c1 (stereo unspecified),-6,-4,-3,1,5,-12,5,i
c1ccc(COc2cccc(-c3cc4nc(NCCCn5ccnc5)ccn4n3)c2)cc1,.,8,6,-1,.,-20,.,.
O=C(Nc1ccc(S(=O)(=O)N2CCC(C(=O)NC3CCCCC3)CC2)cc1)c1ccco1,-4,2,2,6,6,-16,5,.
N[C@@H](Cc1ccc(O)cc1)c1nnc([C@H](CC(=O)O)NC(=O)C2CCNCC2)o1,-1,-11,1,0,-10,-15,13,i
O=C(COC(=O)COc1ccc(Cl)cc1Cl)NC1CCS(=O)(=O)C1 (stereo unspecified),-14,2,-4,1,.,-6,.,.
COc1ccc(NC(=S)Nc2cccc(S(=O)(=O)N3CCCCC3)c2)cc1,12,-17,0,3,-4,-16,2,i
Cc1cc(C)nc(/N=C2\NC(=O)CC(C(=O)O)N2c2ccc(Cl)cc2Cl)n1 (stereo unspecified),2,14,2,5,-3,.,4,i
N#CC1=C(N)Oc2n[nH]c(-c3cccs3)c2C1C1C=CCCC1 (stereo unspecified),-3,-20,-3,-1,-3,-24,-7,i
COc1cc(-c2noc(C)c2/C=C/c2ccc(N)cc2)cc(OC)c1OC,-15,.,30,10,-8,-9,2,i
O=C(c1ccco1)N1N=C(c2ccco2)CC1c1ccc(Cl)cc1Cl (stereo unspecified),-7,17,1,0,.,-10,.,.
COc1ccc(-n2c3c(cc(C(=O)N4CCC(C)CC4)c2=O)C(=O)CC(C)(C)C3)cc1,-7,9,0,4,1,2,-6,i
COc1ccc(C(=O)OCc2nc(N)nc(Nc3ccccc3C)n2)cc1OC,?,16,5,-3,-9,.,29,i
CC(C)C(=O)Nc1ccc(C(=O)Nc2nnc(C(C)C)s2)cc1,-6,-6,2,-1,-5,-5,5,i
CC(C)(C)c1ccc(Oc2ccc(N)cc2)cc1,?,41,-18,-22,3,-50,12,i
O=C(Nc1nnc(C2CC2)s1)c1cc([N+](=O)[O-])ccc1N1CCCCC1,1,10,2,4,-5,-3,-4,i
# Remaining list, next part
SMILES,CSC inhib,HIV Env fusion,MT1-MMP act inh,MT1-MMP act inh RFP,eIF4H inh,UUG fidelity,PABP polyA inh,Rce1 inhib
CCCCn1c(SCC(=O)N(C)C2CCS(=O)(=O)C2)nc2cc(S(N)(=O)=O)ccc21 (stereo unspecified),-13,-1,-2,1,1,17,2,i
CCN(CC)CCNc1ccnc2cc(Cl)ccc12,0,.,15,-3,37,7,23,i
O=C(NCC(c1ccco1)N1CCOCC1)c1ccccc1 (stereo unspecified),-10,3,8,3,.,-14,.,i
CCOc1ccccc1CNC(=O)Cn1ccc2cc(S(=O)(=O)N3CCCCCC3)ccc21,40,27,-8,-17,-23,13,-6,i
CCn1c(=S)sc2c(=O)n(-c3ccccc3)c(=S)[nH]c21,9,-5,0,-9,-16,.,0,i
O=C(CN1C(=O)NC2(CCCc3ccccc32)C1=O)N1CCc2ccccc2C1 (stereo unspecified),-1,.,-2,0,-9,-1,-9,i
COC(=O)C(O)(CC(=O)c1ccc(OC)cc1)C(F)(F)F (stereo unspecified),-6,-16,3,18,-2,-15,-7,i
CCN(CC)c1ccc(C(=O)NN)cc1,13,-26,0,4,1,.,-8,i
CCn1c(CNc2ccc(C)cc2)nnc1SCC(=O)NCc1ccccc1,7,.,12,1,-6,-13,3,i
CCC(=O)Nc1nc(OC)cc(OC)n1,-30,.,1,5,-1,-12,3,i
COCc1ccc(CN2CCCC(C(=O)Nc3ccc(-c4cscn4)cc3)C2)o1 (stereo unspecified),-4,1,1,2,-10,2,-4,i
Cc1ccccc1CCN(CC(=O)NC1CCCCC1)C(=O)c1csnn1,-6,-1,-2,1,-4,0,1,i
COc1ccc(CCNC(=O)CSc2ccc(NC(C)=O)cc2)cc1OC,-18,-5,1,2,-18,5,-3,i
COc1cccc(NC(=S)N2CCN(c3ccc([N+](=O)[O-])cc3)CC2)c1,6,7,1,-11,-3,.,1,i
CCn1nc(NC(=O)CC(C)C)c2cc3cccc(C)c3nc21,6,1,0,-2,-5,8,-1,i
CC1CCN(S(=O)(=O)c2ccc(NC(=O)Cn3nnc(-c4ccccc4F)n3)cc2)CC1,11,9,2,-5,2,-2,-18,i
COc1ccc(C2=NN(C3=NN=C(N)Cc4ncnn43)C(O)(C(F)(F)F)C2)cc1 (stereo unspecified),1,-3,-3,1,6,.,8,i
CCOC(=O)CCn1nc(-c2ccc(C)cc2)c2ccccc2c1=O,-9,3,0,0,10,.,3,i
O=C(O)c1ccccc1C(=O)N(Cc1ccccc1)Cc1ccccc1,-4,-74,-5,3,-8,-20,3,i
CC(=O)Nc1ccc(S(=O)(=O)N2CCN(S(=O)(=O)N3CCCCC3)CC2)cc1,-9,26,-2,-4,-4,.,4,i
COc1ccc(NC(=O)CCCC(=O)c2ccccc2)c(OC)c1,-2,-5,3,1,-1,-4,1,i
Cc1nc2ccccn2c1C(=O)Nc1ccc2c(c1)OCCO2,.,-169,6,8,-14,-56,2,i
CC(C)OCCCNC(=O)c1cccc(NC(=O)c2ccccc2)c1,-8,.,6,4,-6,4,7,i
CCOC(=O)c1c(C(F)(F)C(F)(F)C(F)(F)C(F)(F)F)n[nH]c1C,.,-203,1,-2,1,-12,-5,i
O=S(=O)(NC1CC2CCC1C2)c1ccc(Br)cc1 (stereo unspecified),-21,9,22,0,4,19,1,i
NS(=O)(=O)c1ccc(NC(=O)/C=C/c2ccc(S(=O)(=O)NCc3ccco3)cc2)cc1,10,11,3,1,-12,5,10,i
Cc1ccc(Oc2ccc(NS(=O)(=O)c3cccc(C(=O)O)c3)cc2)cc1,12,3,-2,1,.,-21,.,.
O=C(NCc1ccccc1)N1CCOc2ccccc21,0,-18,0,3,-7,-8,3,i

# 7 of these compounds, set out differently:
mol	CSC inhib	HIV Env fusion	MT1-MMP act inh	MT1-MMP act inh RFP	eIF4H inh	UUG fidelity	PABP polyA inh	Rce1 inhib
COc1cccc(NC(=S)N2CCN(c3ccc([N+](=O)[O-])cc3)CC2)c1	6	7	1	-11	-3	.	1	i
CCn1nc(NC(=O)CC(C)C)c2cc3cccc(C)c3nc21	6	1	0	-2	-5	8	-1	i
CC1CCN(S(=O)(=O)c2ccc(NC(=O)Cn3nnc(-c4ccccc4F)n3)cc2)CC1	11	9	2	-5	2	-2	-18	i
COc1ccc(C2=NN(C3=NN=C(N)Cc4ncnn43)C(O)(C(F)(F)F)C2)cc1 (stereo unspecified)	1	-3	-3	1	6	.	8	i
CCOC(=O)CCn1nc(-c2ccc(C)cc2)c2ccccc2c1=O	-9	3	0	0	10	.	3	i
O=C(O)c1ccccc1C(=O)N(Cc1ccccc1)Cc1ccccc1	-4	-74	-5	3	-8	-20	3	i
CC(=O)Nc1ccc(S(=O)(=O)N2CCN(S(=O)(=O)N3CCCCC3)CC2)cc1	-9	26	-2	-4	-4	.	4	i

# Screening data from PubChem BioAssay.
